PINK1 modulator: changes PINK1 expression; Potency, µM (highest dose often 76.6 µM), inactives show top-dose activation (PINK1 increase), usual class: activators; PINK1 immunofluorescence, high-content cytometry, 24 h; AID 624263; hit rate 0.2% among 410,000; active = well fitted activation curve with a large enough effect; inconclusive = small, poorly fitted or top-dose-only effect; inactive = flat fitted curve, though single readings scatter; cell line not stated here;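 further: % of control where 0% means no effect; nearly all actives have a fitted effect of over 65% in size; a mitochondrial uncoupler was the plate control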
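Compound titrations (5 concentrations, 24 h) on a stable cell line; DMSO and CCCP controls. Endpoint: fixed-cell PINK1 immunofluorescence with mitochondrial, cell and nuclear markers, scanned by microplate cytometer.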
Starred values were filed as active, the others as inactive; u = inconclusive. Potency means the concentration at half of the fitted maximal effect. This is a subset; the hit share may differ from the screen's.

Preview, 2 compounds:
PINK1 modulator | structure
0.3% | COc1cc(C2CC(=O)Nc3ccc4ccccc4c32)ccc1OC(=O)C(C)C (stereo unspecified)
1.1% | COc1ccccc1CNC(=O)Cn1c(=O)nc(-c2ccccc2)c2ccccc21

The listing, from the start:
PINK1 modulator | structure
0.3% | COc1cc(C2CC(=O)Nc3ccc4ccccc4c32)ccc1OC(=O)C(C)C (stereo unspecified)
1.1% | COc1ccccc1CNC(=O)Cn1c(=O)nc(-c2ccccc2)c2ccccc21
2.7% | Cc1ccc(Nc2c(-c3ccc(Br)o3)nc3ccccn23)cc1
0.3% | Cn1cnc(S(=O)(=O)N2CCC(C(=O)NCc3ccccc3)CC2)c1
0.6% | O=C(NCc1ccc2c(c1)OCO2)c1ccc2c(c1)N(Cc1ccccc1F)C(=O)c1ccccc1S2=O (stereo unspecified)
u | Cc1cccc2sc(N(Cc3cccnc3)C(=O)COc3ccccc3)nc12
3.6% | CCN(Cc1ccccc1)C(=O)CCS(=O)(=O)c1cc(Br)cc2c1N(C(=O)C1CC1)CC2
3.0% | CCc1nn(CC(=O)NCc2cccc(OC)c2OC)c(=O)c2cc3occc3n12
3.1% | CCOc1ccc(NC(=O)N2CCC(n3c(C)nc4cccnc43)CC2)cc1
0.2% | Cc1ccc(S(=O)(=O)N2CCN(c3nc(-n4cncn4)nc4ccccc34)CC2)cc1
4.0% | CCOc1ccccc1NC(=O)CN(C)S(=O)(=O)c1ccc(C(=O)N2CCOCC2)s1
3.4% | CCN(CC)S(=O)(=O)c1ccc2c(c1)c(=O)c(C(=O)NCc1ccc(Cl)cc1)cn2C
2.0% | Cc1cccc2c(=O)cc(CSc3ccccc3NC(=O)C(C)(C)C)[nH]c12
1.6% | Cc1cc(C)[n+](C)c2ccccc12
9.0% | Cc1ccccc1C(=O)Nc1cccc(C(=O)OCc2cc(=O)n3ccsc3n2)c1
0.0% | Cc1ccc(CNC(=O)C(C)n2c(=O)cc(-c3ccccc3)c3c(C)nn(C)c32)cc1 (stereo unspecified)
2.6% | Cn1cc(-c2cc3n(n2)CCC(=O)N3CC(=O)NCc2ccc(Cl)cc2)c2ccccc21
3.3% | Cc1ccccc1C(=O)OCc1cc(=O)n2nc(-c3cccs3)sc2n1
0.4% | COc1ccc(OC)c(NC(=O)Cn2c(=O)c3cccn3c3ccccc32)c1
3.1% | CCOC(=O)c1cnc2c(C)cc(C)cc2c1Nc1ccccc1OCC
0.5% | CCC(Sc1nncn2c1cc1sccc12)C(=O)Nc1cccc(OC)c1 (stereo unspecified)
14.1% | CCc1ccc(NC(=O)c2sc3nc(C)c(C(=O)Nc4ccc(C)cc4C)c(-c4ccco4)c3c2N)cc1
2.1% | Cc1c(NC(=O)c2cc3ccccc3o2)cccc1-c1nc2ccccc2o1
-0.1% | Cc1ccc(C)c(N2CCN(c3nc4ccccc4c4nc(CCn5nc(C)cc5C)nn34)CC2)c1
-0.9% | O=C(Nc1ccc2nc(SCC(=O)N3CCCC3)sc2c1)c1ccccc1
1.0% | Cc1c(CNC(C)CCc2ccccc2)c(C(=O)O)c(C)n1Cc1ccc(F)cc1Cl (stereo unspecified)
0.0% | Cc1ccc(NC(=O)c2c(N3CCCC3=O)c3cc(C)ccc3n2C)c(C)c1
0.1% | Cn1c(SCC(=O)c2ccc(F)cc2)nnc1-c1ccccc1Br
7.0% | COc1ccc(C)cc1NC(=O)C1CCN(S(=O)(=O)c2cc(Br)cc3c2N(C(C)=O)CC3)CC1
6.0% | CCOc1ccc(CC(=O)Nc2ccc3nc(N4CCCCC4)cc(C)c3c2)cc1OCC

Looked up above:
Value for Cn1cnc(S(=O)(=O)N2CCC(C(=O)NCc3ccccc3)CC2)c1 in PINK1 modulator: 0.3%
Value for CCc1nn(CC(=O)NCc2cccc(OC)c2OC)c(=O)c2cc3occc3n12 in PINK1 modulator: 3.0%
Value for CCOc1ccc(CC(=O)Nc2ccc3nc(N4CCCCC4)cc(C)c3c2)cc1OCC in PINK1 modulator: 6.0%
Value for COc1ccccc1CNC(=O)Cn1c(=O)nc(-c2ccccc2)c2ccccc21 in PINK1 modulator: 1.1%
Value for Cn1cc(-c2cc3n(n2)CCC(=O)N3CC(=O)NCc2ccc(Cl)cc2)c2ccccc21 in PINK1 modulator: 2.6%
Value for Cc1ccc(S(=O)(=O)N2CCN(c3nc(-n4cncn4)nc4ccccc34)CC2)cc1 in PINK1 modulator: 0.2%

Continuation:
PINK1 modulator | structure
0.4% | C#CCSc1nc2ccccc2c(=O)n1CC=C
1.7% | CCCC1=Nc2cc(C(=O)NCCc3ccc(OCC)cc3)ccc2Sc2ccccc21
0.3% | CC1CCCN(S(=O)(=O)c2cc(C(=O)NCc3ccccc3Cl)n(C)c2)C1 (stereo unspecified)
0.2% | COc1cc(C2CC(=O)Nc3c2c(=O)n(C)c2ncnn32)cc(OC)c1OC (stereo unspecified)
6.7% | CCn1c(C(=O)NCCc2ccc(S(N)(=O)=O)cc2)cc2sc(Cl)cc21
5.8% | CN(Cc1ccccc1)S(=O)(=O)c1ccc(F)c(C(=O)Nc2cc(Cl)cc(Cl)c2)c1
1.4% | COc1ccccc1N1CCN(c2csc3ccc(Cl)cc3c2=O)CC1
0.0% | CCc1ccc(CNC(=O)C2COc3ccc(OC)cc3C2)cc1 (stereo unspecified)
0.2% | COc1ccccc1CNC(=O)CCc1c(C)nn(-c2ccc(N3CCOCC3)nn2)c1C
9.6% | CCCC(O)c1nc2ccccc2n1CCCOc1ccc(Cl)cc1 (stereo unspecified)
13.4% | Cc1ccc(N2CCN(C(=O)c3c(C)oc4nc(C)nc(N5CCCC5)c34)CC2)c(C)c1
0.5% | N#Cc1ccc(NC(=O)COCc2cc(-c3ccc4c(c3)OCO4)on2)cc1
-1.0% | Cn1c(=O)c2nc(SCC(=O)Nc3cc(Cl)ccc3Cl)n(C)c2n(C)c1=O
4.5% | CCOc1ccc(OCC)c(NC(=O)Cn2ncc3c4ccccc4n(Cc4ccccc4)c3c2=O)c1
-1.0% | Cn1c(=O)c2c(nc(SCC(=O)Nc3ccc(F)cc3)n2Cc2ccccc2)n(C)c1=O
1.9% | COC(=O)c1ccccc1NC(=O)CCc1c(C)nc2c(c(C)nn2-c2ccccc2)c1C
-10.3% | Cc1nc(N2CCOCC2)c2c(C(=O)N(C)Cc3ccccc3)c(C)oc2n1
0.7% | CCOC(=O)Cn1c(C2CC(=O)N(c3ccc(C)cc3)C2)nc2ccccc21 (stereo unspecified)
6.8% | CN(c1ncnc2onc(-c3cccc(Cl)c3)c12)C1CCCCC1
0.1% | COc1ccc(-c2cn3nc(N4CCC(C(=O)Nc5cccc(Cl)c5)CC4)sc3n2)cc1
-1.7% | COc1cn(CC(=O)Nc2cccc(C)c2)c(CN2CCCCC2)cc1=O
-1.7% | CCC(=O)N1CCc2cc(Br)cc(S(=O)(=O)CCC(=O)NCc3ccccc3OC)c21
3.2% | COc1ccc(Cl)cc1NC(=O)CCC(=O)N1CCOc2ccccc21
0.4% | COc1cccc(OCC(=O)NC2CC(=O)N(c3ccc4c(c3)OCCO4)C2)c1 (stereo unspecified)
1.4% | COc1ccc(NC(=O)C2CCN(S(=O)(=O)c3c(C)noc3/C=C/c3cccs3)CC2)cc1
-0.2% | CCOC(=O)CN1C(C(=O)c2ccccc2)=C(OC(=O)c2ccccc2)c2ccccc2S1(=O)=O
-0.5% | Cc1ccc2nc(-c3ccsc3)c(Nc3ccc(Cl)cc3)n2c1
0.7% | O=C(CCn1c(=O)c2cccn2c2cccnc21)NCc1ccc(Cl)cc1
1.9% | Cc1cccc2nc(-c3cccc(NS(=O)(=O)c4ccccc4)c3)cn12
3.0% | Cc1nc2nc(NC(=O)c3ccccc3F)[nH]n2c(=O)c1Cl

The listing continues:
PINK1 modulator | structure
-1.3% | CCc1cccc(N2C(=O)N(Cc3c(F)cccc3Cl)c3ccccc3S2(=O)=O)c1
0.9% | O=C(O)C1=C/C(=C/C=[N+]2c3cc(O)c(O[C@H]4OC(CO)[C@@H](O)[C@@H](O)[C@@H]4O)cc3C[C@@H]2C(=O)[O-])C[C@H](C(=O)O)N1 (stereo partly specified)
-2.8% | O=C(O)Cc1ccc(NC2(c3ccccc3)C(=O)c3ccccc3C2=O)cc1
-0.3% | CCNc1sc(S(C)(=O)=O)nc1S(=O)(=O)c1ccc(C)cc1
2.4% | Cc1cc(C)n(-c2nc3cc(Cl)ccc3nc2Nc2ccc(CC(=O)O)cc2)n1
1.8% | CC1CCN(S(=O)(=O)c2ccc3c(c2)N(CC(=O)NCc2ccccc2Cl)C(=O)CO3)CC1
1.1% | Cc1ccc(NC(=O)c2cccc(NC(=O)N3CCSc4ncccc43)c2)cc1F
1.2% | O=C(CCc1ccccc1)NCc1ccc2c(c1)CCN2C(=O)c1ccc(Cl)cc1
1.6% | Cn1c(=O)c2c(nc(SCC(=O)Nc3ccccc3)n2Cc2ccccc2F)n(C)c1=O
-0.7% | O=C(Nc1cc(-c2nc3ccccc3o2)ccc1Cl)c1ccc(Br)o1
-0.1% | O=C(NCCc1ccccc1)C1(c2cccs2)CCOCC1
1.4% | O=c1c2cc3c(cc2nc2sc(Nc4ccccc4)nn12)OCO3
1.1% | CCCS(=O)(=O)NCc1c(C)ncc2c1CCN(C(=O)/C=C/c1ccc(F)cc1F)C2
1.2% | CC1=C(C(=O)Nc2ccccc2)C(c2ccncc2)n2nc(SCc3ccccc3F)nc2N1 (stereo unspecified)
3.0% | Cc1ccc(N2CC(NC(=O)c3cc4ccccc4o3)CC2=O)cc1C (stereo unspecified)
-0.2% | Cc1ccccc1OCc1nc2c3cnn(-c4cccc(F)c4)c3ncn2n1
1.8% | CC(C)c1ccc(/C=C/C(=O)Nn2cnnc2)cc1
2.6% | Cc1nn(-c2ccccc2)c2sc(C(=O)Nc3cccc(Br)c3)cc12
1.0% | COc1ccc(CCNC(=O)c2c3c(nc4ccccc24)C(=O)N(C2CCCCC2)C3)cc1OC
-5.9% | COc1ccccc1Nc1nn2c(=O)c3ccc(C(=O)NCCC4=CCCCC4)cc3nc2s1
-1.2% | COc1ccc(NC(=O)CSc2nnc(-c3nonc3NC(C)=O)n2-c2ccccc2)cc1
2.1% | COc1ccc(NC(=O)CCc2c(C)nc3c(c2C)c(=O)n(C)c(=O)n3C)cc1OC
-1.0% | COc1ccc(CCNC(=O)C2=C(C)C(=O)OC23CCCCC3)c(OC)c1
0.1% | CCOc1ccc(S(=O)(=O)N2CCN(c3c(C)cccc3C)CC2)c2ccccc12
0.2% | O=C(NCCc1csc(-c2cccnc2)n1)c1cccc(C(F)(F)F)c1
-3.7% | CC1=C(C(N)=O)C(c2ccccc2Br)n2ncnc2N1 (stereo unspecified)
1.5% | O=C(NC1CCN(Cc2ccccc2)CC1)c1ccc(Cn2c(=O)c3ccccc3n(Cc3ccccc3)c2=O)cc1
-0.2% | CCCN1C(=O)c2ccccc2CC1(C)C(=O)NC1CCCCC1 (stereo unspecified)
-5.2% | CCOc1ccc(-c2nn(-c3ccccc3)cc2C2NC(=O)NC(C)=C2C(=O)OC(C)C)cc1C (stereo unspecified)
1.0% | COc1cc(=O)n2c(c1C(=O)N(C)Cc1nonc1C)CCN(Cc1c(F)cccc1F)CC2

A different layout for part of the listing above:
| mol | PINK1 modulator |
| --- | --- |
| Cn1cc(-c2cc3n(n2)CCC(=O)N3CC(=O)NCc2ccc(Cl)cc2)c2ccccc21 | 2.6% |
| Cc1ccccc1C(=O)OCc1cc(=O)n2nc(-c3cccs3)sc2n1 | 3.3% |
| COc1ccc(OC)c(NC(=O)Cn2c(=O)c3cccn3c3ccccc32)c1 | 0.4% |
| CCOC(=O)c1cnc2c(C)cc(C)cc2c1Nc1ccccc1OCC | 3.1% |
| CCC(Sc1nncn2c1cc1sccc12)C(=O)Nc1cccc(OC)c1 (stereo unspecified) | 0.5% |

Later entries
PINK1 modulator | structure
2.6% | Cc1cccc(-c2cc(NC(=O)c3ccccc3C)n(-c3ccccc3)n2)c1
-1.9% | Cc1ccc(CCNC(=O)c2c(C)oc3ncnc(N4CCOCC4)c23)cc1
-0.2% | CN(Cc1ccccc1)S(=O)(=O)c1ccc(F)c(C(=O)Nc2cccc(Cl)c2Cl)c1
2.2% | Cc1nc(-c2ccc(F)cc2)sc1CCNC(=O)c1ccccc1C(F)(F)F
-0.9% | O=C(c1ccc2c(c1)OCO2)c1cn(Cc2ccc(F)cc2)c2ccccc2c1=O
-0.2% | Cc1cc(NC(=O)c2ccc(Br)o2)cc(-c2nc3ccccc3o2)c1O
-1.0% | Cc1cc(C)n2c(Nc3cccc(C(F)(F)F)c3)c(-c3ccsc3)nc2n1
-1.0% | Cc1sc(C2C(C#N)=C(N)N(c3ccc(Cl)cc3)C3=C2C(=O)CCC3)cc1CN1CCOCC1 (stereo unspecified)
-0.6% | N#Cc1ccc(NC2=NS(=O)(=O)c3ccccc32)cc1
1.5% | CCOc1ccc(NS(=O)(=O)c2ccc(NC(=O)N3CCCC3)cc2)cc1
1.0% | Cc1ccc(NC(=O)CN(Cc2ccccc2)S(=O)(=O)c2ccc3nc(C)sc3c2)c(C)c1
3.0% | CCN1CCN(C(c2ccccc2Cl)c2c(O)cc(C)n(CCOC)c2=O)CC1 (stereo unspecified)
-0.2% | CCc1ccc(-n2nc(C)c3c(C)cc(=O)n(CC(=O)Nc4ccc(C(C)=O)cc4)c32)cc1
-0.6% | COc1ccc2c(CNCc3ccc(Cl)cc3)c(C(=O)O)n(Cc3ccccc3C)c2c1
0.2% | O=S(=O)(c1ccc2nc(N3CCN(c4cccc(Cl)c4)CC3)ccc2c1)N1CCCCC1
5.0% | Cc1ccccc1C(=O)OCc1cc(=O)n2nc(C(C)C)sc2n1
4.8% | COc1cc(C(=O)Nc2ccc3nc(SCc4ccc(C)cc4)sc3c2)cc(OC)c1OC
1.0% | O=C1C(c2ccc(F)cc2)N(CCc2ccc(Cl)cc2)C(=O)CN1C1CCCCCC1 (stereo unspecified)
0.7% | CCc1cccc(NC(=O)Cn2c(=O)n(-c3ccccc3C)c(=O)c3c2c2cc(C)ccc2n3C)c1
-0.1% | CSc1cccc(N2C(=O)N(Cc3ccc([N+](=O)[O-])cc3)c3ccccc3S2(=O)=O)c1

Compound activity from PubChem.
